Sfp PPTase inh: blocks B. subtilis Sfp PPTase activity; Q9F4F7; Biochemical Sfp PPTase activity, qHTS; Potency, µM, for the others: max response, negative = inhibition, usual class: inhibitors; 3.5% of 310,000 active; active = well fitted inhibition curve with a large enough effect; inconclusive = small, poorly fitted or top-dose-only effect, or another doubt; inactive = no such curve, though single readings can be large or run the other way;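 note: the enzyme is Sfp with the accession as filed and its product quenches rhodamine fluorescence; potency is the fitted concentration of half-maximal effect; 0% = enzyme reaction without inhibitor and -100% = no enzyme wells; top concentration of the series not given in the record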
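Step 1, compound plus 15 nM Sfp-PPTase, 15 min, room temperature. Step 2, add rhodamine-CoA (5 uM) and BHQ-2-YbbR (12.5 uM). Step 3, read 525/598 nm fluorescence at 0 and 30 min.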
TRPV1 potentiator: enhances activation of the human vanilloid receptor TRPV1; TRPV1-expressing cells, Fluo-8 calcium influx, capsaicin EC20 potentiation; host cell line not named in the record; control for the full effect not named in the record; potentiation, % at 8.33 µM; 0.02% of 320,000 active; active means potentiation above 80%; inconclusive means 30% to 80%; inactive means below 30%; note: 0% is about no effect
Target sequence (Q8NER1 whole entry, looked up): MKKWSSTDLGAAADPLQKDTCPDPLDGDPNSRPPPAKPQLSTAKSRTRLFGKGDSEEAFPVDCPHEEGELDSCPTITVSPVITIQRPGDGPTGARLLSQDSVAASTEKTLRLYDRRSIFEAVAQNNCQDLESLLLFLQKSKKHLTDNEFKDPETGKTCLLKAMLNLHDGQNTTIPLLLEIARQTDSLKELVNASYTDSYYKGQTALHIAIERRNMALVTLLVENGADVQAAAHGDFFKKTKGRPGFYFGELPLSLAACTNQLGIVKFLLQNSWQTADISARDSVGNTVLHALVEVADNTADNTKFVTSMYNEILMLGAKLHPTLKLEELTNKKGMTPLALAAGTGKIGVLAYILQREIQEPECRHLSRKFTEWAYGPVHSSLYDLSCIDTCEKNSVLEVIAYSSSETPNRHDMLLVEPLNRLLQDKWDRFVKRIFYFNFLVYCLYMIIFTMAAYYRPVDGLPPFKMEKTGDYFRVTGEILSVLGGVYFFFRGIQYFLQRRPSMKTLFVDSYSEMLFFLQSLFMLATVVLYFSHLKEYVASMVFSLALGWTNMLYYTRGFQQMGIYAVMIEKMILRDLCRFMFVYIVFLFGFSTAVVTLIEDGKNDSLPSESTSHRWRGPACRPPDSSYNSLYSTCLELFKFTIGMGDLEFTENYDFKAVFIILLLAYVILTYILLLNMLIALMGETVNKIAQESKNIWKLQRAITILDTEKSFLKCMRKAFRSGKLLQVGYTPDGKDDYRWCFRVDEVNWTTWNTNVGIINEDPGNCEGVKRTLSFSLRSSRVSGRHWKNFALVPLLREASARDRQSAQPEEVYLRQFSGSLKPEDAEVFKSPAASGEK
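TRPV1-expressing cells were cultured overnight at 35.5C and loaded with Fluo-8 calcium dye for 40 to 90 min at room temperature. After a 10 s baseline, compound was added and calcium influx was read kinetically for 3 min (ex 480/em 520 nm).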
Menin MLL FP FL: displaces fluorescein MLL peptide from human menin | Fluorescence polarization, fluorescein-MLL peptide displacement from menin | AID 1766 | FP activity change, % at 61.4 µM | 290,000 tested, under 10 active; inconclusive = falling polarisation curve, or a change in total fluorescence; inactive = total fluorescence flat and polarisation flat or rising; no compound was filed as active; the % refers to the polarisation; negative = inhibition;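 note: % of control where 0% means no effect; inhibitors lower the polarisation; unlabelled MLL peptide was the positive control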
ClpP mod: qHTS Assay for Activators of ClpP; purified B. subtilis ClpP, FRET peptide cleavage, 20 min; Potency, µM (series often up to 57.5 µM), for the others: at the highest dose activity change, negative = active; 1.9% of 340,000 active; AID 651965, 2013; active = well fitted falling curve with a large enough effect; inconclusive = small, poorly fitted or top-dose-only effect; inactive = no such curve, though single readings can be large or run the other way; note: potency is the fitted concentration of half-maximal effect; the source files actives as falling curves though it sought activators and does not explain the sign; nearly all actives have a fitted effect of over 65% in size; many hits overshoot -100%
Target sequence (P80244 whole entry, looked up): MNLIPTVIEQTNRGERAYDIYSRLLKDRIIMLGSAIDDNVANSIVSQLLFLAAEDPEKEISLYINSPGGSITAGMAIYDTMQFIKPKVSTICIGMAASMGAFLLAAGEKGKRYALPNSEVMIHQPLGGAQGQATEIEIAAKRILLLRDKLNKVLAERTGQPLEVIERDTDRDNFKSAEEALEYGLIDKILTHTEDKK
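ClpP 10 microg/mL final, pH 8 Tris/KCl buffer with BSA, glycerol, Tween-20; compound pinned in; FRET-FV substrate; RT 20 min; Ex320/Em430; ΔFRET vs ADEP 5.8 microM, DMSO, no enzyme.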
gsp agonist: activates gsp, the McCune-Albright syndrome mutation; gsp mutant cells, cAMP HTRF, 30 min; control for the full effect not named in the record; Potency, µM (titrated, usually from 76.9 µM), for the others: top-dose activation (cAMP increase), hits mostly activators; 0.13% of 340,000 active; active = well fitted activation curve with a large enough effect; inconclusive = small, poorly fitted or top-dose-only effect, or another doubt; inactive = no such curve, though single readings can be large or run the other way; cell line not stated here;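 note: phosphodiesterase inhibitor Ro 20-1724 added with compounds to block cAMP breakdown; potency is the fitted concentration of half-maximal effect; nearly all actives have a fitted effect of over 60% in size; about a fifth of the inactives were tested at one dose only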
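Cells stably selected in G418 were plated at 2000/well, grown 16-24 hr, then given compounds in DMSO with the PDE inhibitor […] (300 uM solution added) for 30 min at 37C; cAMP was read by HTRF.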
TRPML1 blocker: human mucolipin-1 channel inhibition; TRPML1-inducible cells, Ca2+ dye fluorescence, FDSS; hits give low values; inhibition of EC80 agonist-evoked calcium signal; activity change, negative = inhibition, % (no concentration beside the values); 0.02% of 390,000 active; in the data active means activity change below about -50%; inconclusive means about -30% to -50%; inactive means above about -30%;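 note: stimulus is agonist 54-4 at its EC80 concentration; % is set by controls: 0 for no effect and ±100 for the full control effect; compound concentration not given in the record; the text of the record puts the active cut at -80%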
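Tet-induced TRPML1-DL cells loaded with Ca8 no-wash calcium dye were read kinetically on FDSS. Compound addition was followed by EC80 agonist 54-4 (4 uM final); inhibition was read over 110 s.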
gsp antag: antagonists of gsp mutant (McCune-Albright syndrome). gsp-mutant cells, cAMP HTRF, 30 min; control for the full effect not named in the record. Potency, µM (highest dose often 76.9 µM), for the others: at the highest dose activity change, negative = inhibition, most hits filed as inhibitors. 0.4% of 340,000 active. AID 624288; active = falling curve of any shape with a large fitted effect; inconclusive = falling curve, mostly with a smaller effect; inactive = flat or rising curve; cell line not stated here;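 note: intracellular cAMP measured with PDE inhibitor Ro 20-1724 present during compound exposure; potency is the fitted concentration of half-maximal effect; % is set by controls: 0 for no effect and ±100 for the full control effect; nearly all actives have a fitted effect of over 65% in size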
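HTRF cAMP measurement after 30 min RT detection following 30 min, 37C compound treatment alongside […] (added as 300 uM solution) in G418-selected cells seeded at 2000/well and grown 16–24 h.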
Starred values were filed as active, the others as inactive; ? = inconclusive; . = no result given; & = joins results of further samples; [ ] = another dose, or the depositor's remark.

compound,Sfp PPTase inh,TRPV1 potentiator,Menin MLL FP FL,ClpP mod,gsp agonist,TRPML1 blocker,gsp antag
COc1ccccc1OC(C)C(=O)Nc1nc(-c2ccc(S(=O)(=O)N3CCOCC3)cc2)cs1 (stereo not given),8.4%,9.1,1.3,-11.0%,-34.5%[inhibitor],2.0,-3.3%
CCOc1ccc(Br)cc1/C=N/O,9.6%,4.9,-0.6,3.1%,-13.5%,0.1,6.6%
O=C(c1ccco1)N1CCCN(Cc2nc(-c3cccs3)no2)CC1,-20.1%,-21.2,8.6,-0.9%,-3.7%,-3.4,4.3%
O=C(CC1C(=O)NCCN1Cc1cccc(Oc2ccccc2)c1)NCCc1ccncc1 (stereo not given),6.0%,0.4,-7.3,-3.4%,24.7%,-15.6,-0.6%
Cc1ccc(S(=O)(=O)N2CCC(=O)N(C(COCc3ccc(Cl)cc3)Cc3ccccc3)CC2)cc1 (stereo not given),-12.8%,8.2,0.2,0.5%,-20.4%,-9.5,-16.0%
CCCCn1c(CN2CCN(C(=O)OCC)CC2)nc2c1c(=O)n(C)c(=O)n2C,-5.7%,-15.7,3.7,-1.2%,?,-7.4,3.5%
CC(=C/c1ccc(C(C)C)cc1)/C=N/NC(=O)c1ccncc1,12.6%,-12.8,3.1,-5.8%,-19.1%,-18.1,-14.4%
COc1c2c(cc3oc(CO[C@@H]4O[C@H](CO)[C@@H](O)[C@H](O)[C@H]4O)cc(=O)c13)O[C@H](C(C)(C)O)C2,.,.,.,3.9%,26.7%,-12.5,9.2%
COc1ccc(Cl)cc1-c1nc(-c2ccc(Br)o2)no1,24.2%,.,5.9,0.0%,5.2%,6.2,4.1%
Cc1ccc(-c2nnc(COC(=O)c3ccco3)o2)cc1,11.1%,-9.6,.,-1.8%,36.8%,-16.5,-0.1%
C=CCOC(=O)C1=C[C@H](c2coc3ccccc3c2=O)C[C@H](OCCCCO)O1,.,.,.,20.2%,.,-19.5,-14.2%
O=C(c1cccc(F)c1)N1CCN(C(=O)C2CC2)CC1,12.7%,6.5,2.0,0.6%,-26.4%,30.6,11.5%
Cc1ccc(NC(=O)C2C3C=CC4(O3)C2C(=O)N(CCCN2CCCCC2)C4C(=O)NC2CCCCC2)cc1C (stereo not given),2.6%,-1.8,-1.6,.,8.1%[15.4 µM],4.4,6.2%
COCCN1CCN(C(=O)c2ccc3oc(CCCc4ccccc4)nc3c2)CC1,13.2%,-1.5,.,.,12.1%[15.4 µM],-22.0,-1.4%
CSc1nnc(C2CCN(CC(=O)Nc3ccccc3N3CCOCC3)CC2)n1C(C)C,15.1%,1.3,-1.7,.,-7.1%[15.4 µM],-15.3,6.9%
COc1ccccc1C(=O)Nc1cc2cc(Br)ccc2oc1=O,-24.5%,8.5,-0.1,-5.9%,0.0%,0.7,11.8%
Cc1ccc(NC(=O)C2CC(=O)n3ncnc3N2)cc1C (stereo not given),15.1%,-1.1,1.1,22.7%,-1.6%[15.4 µM],-3.2,9.1%
CC1=C(C)SC(=C(C#N)c2nnc(N3CCOCC3)n2-c2ccccc2)S1,-4.8%,11.5,1.2,0.6%,7.4%,-6.8,-0.2%
O=C1C2C3C=CC(C4CC34)C2C(=O)N1/N=C/c1ccc(-c2cccc([N+](=O)[O-])c2)o1 (stereo not given),-8.0%,9.6,1.2,31.6µM*,-8.6%[15.4 µM],-4.2,-29.7%
CC1CCN(S(=O)(=O)c2ccc3c(c2)N(CC(=O)NCCCN2CCCC(C)C2)C(=O)CS3)CC1 (stereo not given),-0.2%,20.1,.,-0.1%&0.6%,?,40.9&11.3,9.7%
CCCC1=C(C(=O)OCC)C(c2cc(Cl)cc(OC)c2OCc2ccccc2)NC(=O)N1 (stereo not given),14.2%,-4.7,5.4,-9.3%,3.8%,-11.8,-3.0%
O=C(c1ccco1)N1CCN(C(=O)c2oc(=O)c3ccccc3c2-c2ccccc2)CC1,12.8%,.,3.5,-1.6%,-35.7%,-8.5,-0.5%
CCC(CO)NC(=O)c1ccccc1C(F)(F)F (stereo not given),-12.7%,?,-0.7,-0.5%,4.5%,17.4,16.4%
O=C(Nc1nc2c(s1)C(=O)CCC2)c1ccccc1,7.3%,-20.2,-3.0,-7.1%,-2.7%,-10.1,5.6%

Look-ups from the results shown.
CCCC1=C(C(=O)OCC)C(c2cc(Cl)cc(OC)c2OCc2ccccc2)NC(=O)N1 (stereo not given) in Sfp PPTase inh is listed with 14.2%
CSc1nnc(C2CCN(CC(=O)Nc3ccccc3N3CCOCC3)CC2)n1C(C)C in TRPV1 potentiator is listed with 1.3

The listing continues:
compound,Sfp PPTase inh,TRPV1 potentiator,Menin MLL FP FL,ClpP mod,gsp agonist,TRPML1 blocker,gsp antag
COc1ccc(C=O)cc1OC(=O)C1(C)Cc2ccccc2C(=O)O1 (stereo not given),19.7%,-1.7,-0.3,.,-1.4%[15.4 µM],-8.6,-2.2%
CCN1CCN(CCCNC(=O)Cn2cc3c(n2)CCCC3)CC1,-8.7%,2.6,4.2,-1.2%,-16.0%,-1.8,14.5%
Cc1ccccc1CS(=O)(=O)c1ccc(C(=O)N2CCC(C)CC2)cc1[N+](=O)[O-],8.0%,-4.1,-1.6,.,15.7%[15.4 µM],-4.3,-0.4%
CCCC(C(=O)NC(C)(C)C)N(CC1CCCO1)C(=O)CNS(=O)(=O)c1ccc(F)cc1 (stereo not given),9.2%,-2.7,.,.,6.6%,-3.8,1.9%
O=C(C1CCCCC1)N1C[C@H](n2cc(C3CC3)nn2)[C@@H](O)C[C@@H]1c1ccccc1,.,.,.,-0.2%,23.9%,-5.2,.
CCc1cc(=O)oc2cc(OCC(=O)NCCCN3CCOCC3)c(Cl)cc12,22.1%,-0.6,.,3.7%,?,-14.1,0.3%
O=CNC1CCCc2c1[nH]c1ccc(Cl)cc21 (stereo not given),9.2%,?,1.1,-3.9%,2.5%,18.5,-1.5%
NS(=O)(=O)c1ccc(NC(=O)CSc2cn[nH]n2)cc1,11.8%,3.5,-0.9,.,-14.9%,26.4,12.3%
Cc1ccc(OCCNC(=O)c2ccccc2OCc2c(C)noc2C)cc1,.,-10.2,.,-6.1%,?,30.7,-5.4%
CCN1CCN(C(c2cccs2)C(C)NS(=O)(=O)c2ccc(Br)cc2)CC1 (stereo not given),3.0%,0.8,-3.1,0.5%,-42.1%[inhibitor],-7.6,14.0%
COCCOC(=O)C1=C(C)NC2=C(C(=O)CCC2)C1c1ccc2c(c1)OCO2 (stereo not given),11.0%,-12.3,-0.2,?,-1.9%,2.3,2.3%
CCc1cccc(CC)c1N1C(=O)CC(Sc2ccccc2N)C1=O (stereo not given),.,.,.,-0.2%,-34.3%[inhibitor],3.9,.

Rewritten field by field: part of the list above
> CCc1cc(=O)oc2cc(OCC(=O)NCCCN3CCOCC3)c(Cl)cc12
  Sfp PPTase inh: 22.1%; TRPV1 potentiator: -0.6; Menin MLL FP FL: .; ClpP mod: 3.7%; gsp agonist: ?; TRPML1 blocker: -14.1; gsp antag: 0.3%
> COc1ccc(C=O)cc1OC(=O)C1(C)Cc2ccccc2C(=O)O1 (stereo not given)
  Sfp PPTase inh: 19.7%; TRPV1 potentiator: -1.7; Menin MLL FP FL: -0.3; ClpP mod: .; gsp agonist: -1.4%[15.4 µM]; TRPML1 blocker: -8.6; gsp antag: -2.2%

More entries.
compound,Sfp PPTase inh,TRPV1 potentiator,Menin MLL FP FL,ClpP mod,gsp agonist,TRPML1 blocker,gsp antag
CC(SCc1ccccc1)C(=O)Nc1ccccc1 (stereo not given),17.2%,-10.8,-0.5,-1.2%,-32.5%[inhibitor],20.2,12.0%
COc1ccc(C(=O)N2CCN(CCNC(=O)C(=O)Nc3ccc(F)cc3)CC2)cc1,8.4%,1.6,-6.4,.,-4.0%[15.4 µM],21.1,0.2%
CCOc1cccc(C(=O)Nc2cccnc2)c1,5.2%,-22.7,-1.3,-5.3%,-1.3%,-12.3,6.8%
Cc1ccc2c(C)c(C(=O)NCC(C)(C)N3CCOCC3)oc2c1C,5.9%,-13.3,4.9,-2.0%,10.3%,5.2,9.8%
CCc1ccc2occ(CC(=O)Nc3ccc(OC)c(Cl)c3)c2c1,.,-6.5,.,3.0%,.,12.2,.
Cc1ccc(SCC(=O)OCC(=O)N(CCC#N)c2ccccc2)cc1,.,3.4,.,0.3%,-12.2%,0.1,-1.7%
COCCn1c(SCC(=O)N2CCCCCC2)nc2c([nH]c3ccccc32)c1=O,20.5%,-16.4,.,?,0.3%,22.5,9.2%
COc1ccc(-c2oc(=O)c3cc(OC)c(OC)cc3c2C#CCCCO)cc1,.,.,.,3.8%,.,-3.8,-6.2%
COc1ccc(/C=N/n2cnnc2SCc2ccc(OC)cc2)cc1,-11.0%,-0.2,1.5,-1.2%,-1.7%,-7.1,4.6%
O=C(c1nn2c(C(F)(F)F)cc(-c3ccco3)nc2c1Br)N1CCCc2ccccc21,-19.3%,-1.7,0.4,3.2%,?,1.4,-16.9%
CCOc1ccc(CNC(=S)N/N=C/c2cccnc2)cc1,26.0%,-20.0,1.4,0.6%,-38.3%[inhibitor],12.1,16.0%
O=C(COC(=O)Cn1[nH]c(=O)c2ccccc2c1=O)Nc1c(Cl)cccc1C(F)(F)F,.,5.6,.,-7.8%,-46.8%[inhibitor],-16.9,3.5%
O=C(Nc1ccc2ncccc2c1)c1ccccc1,-1.4%,1.0,5.0,.,?,0.1,4.5%
COc1ccc(N2CCc3c(C)nc4c(OC)cc(OC)cc4c32)cc1,9.2%,0.1,-3.4,.,7.1%[15.4 µM],25.3,13.2%
CCC(=O)N/C(=N/c1nc(C)cc(C)n1)Nc1ccccc1,-5.4%,12.3,0.6,1.2%,-12.4%[15.4 µM],-2.2,?
COCCCNC(=O)c1cc2c(=O)n(C)c3ccccc3c2n1C,18.5%,2.1,2.3,4.2%,-14.7%,-13.7,1.3%

Compound activity as filed in PubChem BioAssay.

Rows were taken by chance. Share with any hit: about 4.9%.
